# Source: PubChem (National Center for Advancing Translational Sciences (NCATS))
# D2 ag = agonists of human D2 dopamine receptor (beta-arrestin) | P14416 | DiscoveRx PathHunter D2 beta-arrestin, luminescence, 90 min; 100% = 57 uM dopamine signal | activation, % (concentration not given with the values) | 360,000 tested, 0.084% active | AID 624465; in the data active = activation above about 40%; inconclusive = about 15% to 40%; inactive = below about 15%; note: compound concentration not given in the record; the text of the record calls up to 30% inactive
#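 DiscoveRx PathHunter D2 beta-arrestin cells (2,100/well) attached overnight, then compound-stimulated 90 min at 37 C in HBSS/10 mM HEPES/0.1% Tween-20 buffer; beta-galactosidase complementation read by luminescence after 1 h at ambient temperature. Dopamine 57 uM final (EC100) as control.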
# TRPML1 blocker = inhibitors of human TRPML1 channel; Q9GZU1; TRPML1-inducible cells, Ca2+ dye fluorescence, FDSS; stronger effect = lower value; inhibition of EC80 agonist-evoked calcium signal; activity change, negative = inhibition, % (test concentration not listed); 390,000 tested, 0.02% active; in the data active means activity change below about -50%; inconclusive means about -30% to -50%; inactive means above about -30%;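 note: stimulus is agonist 54-4 at its EC80 concentration; % is set by controls: 0 for no effect and ±100 for the full control effect; compound concentration not given in the record; the text of the record puts the active cut at -80%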
#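 TRPML1-DL cells, Tet-induced overnight (~16 h, 37 °C) at 1,500 cells/well, were loaded with Ca8 no-wash dye plus quencher for 45-90 min at room temperature. Compounds were pinned during FDSS kinetic reading; agonist 54-4 at EC80 (4 uM final) then added.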
# TRPML1 ag = activates the human TRPML1 channel; 410,000 tested, 0.12% active; activation, % (no concentration beside the values); Q9GZU1; TRPML1-expressing cells, Ca2+ dye fluorescence, FDSS; host cell line not named in the record; reference of the full effect not given here; AID 624414; in the data active = activation above about 50%; inconclusive = about 30% to 50%; inactive = below about 30%; note: 0% is about no effect; the text of the record puts the active cut at 80%
#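 Cells: TRPML1-DL, 1X Tet inducer, ~16 h at 37 degrees C/5% CO2. Dye: ABD Ca8 no-wash + quencher, 45-90 min RT. Read: 10 s baseline, compound add, 110 s agonist phase; 54-4 EC80 (4uM final), 110 s antagonist phase.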
# D2 PAM = positive allosteric modulators of human D2 dopamine receptor. DiscoveRx D2 beta-arrestin cells, luminescence, 90 min; 100% = 57 uM dopamine signal. potentiation, % (no concentration beside the values). 360,000 tested, 0.23% active. AID 624464; active = potentiation of 50% or more; inconclusive = 30% to 50%; inactive = 30% or less;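 note: compound concentration not given in the record; tested on top of an EC20 dose of dopamine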
#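 D2 cells co-treated with compound plus 50 nM dopamine (EC20) for 90 min at 37 deg C to detect potentiation. Beta-arrestin recruitment was read as enzyme-fragment luminescence after 1 h at ambient temperature. Full response was set by 57 uM dopamine.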
# Six1-Eya2 inh = Six1/Eya2 interaction inhibition; 360,000 tested, 0.56% active; AlphaScreen GST-Six1/His-Eya2 binding, biochemical; stronger effect = lower value; control for the full effect not named in the record; activity change, % (concentration not given with the values); Q15475+O00167; in the data active = activity change below about -65%; inconclusive = about -30% to -65%; inactive = above about -30%; note: % is set by controls: 0 for no effect and ±100 for the full control effect
# Target sequence (O00167 whole entry, looked up): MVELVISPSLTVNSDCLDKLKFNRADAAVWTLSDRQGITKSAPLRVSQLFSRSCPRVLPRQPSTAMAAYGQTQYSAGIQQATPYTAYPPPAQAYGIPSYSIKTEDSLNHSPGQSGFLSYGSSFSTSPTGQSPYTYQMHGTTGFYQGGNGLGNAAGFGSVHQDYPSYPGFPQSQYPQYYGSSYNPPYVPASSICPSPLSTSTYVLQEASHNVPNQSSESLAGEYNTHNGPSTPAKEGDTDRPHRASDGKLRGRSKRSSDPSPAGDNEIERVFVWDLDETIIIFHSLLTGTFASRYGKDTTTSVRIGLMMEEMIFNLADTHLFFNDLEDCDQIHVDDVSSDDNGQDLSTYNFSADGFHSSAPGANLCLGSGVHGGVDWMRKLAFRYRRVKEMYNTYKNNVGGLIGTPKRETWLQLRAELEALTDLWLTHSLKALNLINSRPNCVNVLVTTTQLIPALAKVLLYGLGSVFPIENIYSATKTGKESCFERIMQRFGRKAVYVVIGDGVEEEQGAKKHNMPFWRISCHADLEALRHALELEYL
# Target sequence (Q15475 whole entry, looked up): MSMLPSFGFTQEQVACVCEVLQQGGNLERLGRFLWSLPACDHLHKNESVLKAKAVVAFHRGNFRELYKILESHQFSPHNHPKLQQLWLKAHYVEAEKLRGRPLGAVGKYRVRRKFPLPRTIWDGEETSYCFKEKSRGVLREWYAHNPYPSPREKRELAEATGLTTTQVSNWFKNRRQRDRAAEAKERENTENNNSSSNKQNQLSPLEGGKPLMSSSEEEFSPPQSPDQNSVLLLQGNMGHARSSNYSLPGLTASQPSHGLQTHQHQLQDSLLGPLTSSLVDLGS
#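 Compounds are tested against tagged Six1 and Eya2 proteins bridged by glutathione donor and nickel acceptor beads; after a one-hour incubation at 37 °C without light, AlphaScreen emission is recorded.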
# PINK1 expr mod = changes PINK1 expression; 410,000 tested, 0.2% active; Potency, µM (titrated, usually from 76.6 µM), inactives show at the highest dose activation (PINK1 increase), actives largely listed as activators; PINK1 immunofluorescence, high-content cytometry, 24 h; active = well fitted activation curve with a large enough effect; inconclusive = small, poorly fitted or top-dose-only effect; inactive = flat fitted curve, though single readings scatter; cell line not stated here;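 note: potency is the fitted concentration of half-maximal effect; % of control where 0% means no effect; nearly all actives have a fitted effect of over 65% in size; a mitochondrial uncoupler was the plate control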
#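 Fluorescence from anti-PINK1 antibody, together with nuclear and cell stains, was scanned on a laser-scanning cytometer. Before staining, stable-line cells were incubated 24 hours with compounds at 5 concentrations; primary antibody 12 h at 10 degrees C.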
# Numbers without * were called inactive; ? = inconclusive; / = not tested or not shown; & = joins results of further samples; [ ] = dose if it differs, or a comment.
SMILES,D2 ag,TRPML1 blocker,TRPML1 ag,D2 PAM,Six1-Eya2 inh,PINK1 expr mod
CSc1ccccc1C(=O)N1CCc2ccccc2C1,-3.4,8,-0.5,-36,0,0.6%
CC(=O)OCCOCn1cnn2c(=O)c(Br)c(C)nc12,-3.9,1,1.4,-6,18,0.3%
O=C(Nc1cc2c3c(c1)CC(=O)N3CCC2)C1CCCCC1,-3.0,-8,-0.5,12,0,3.0%
O=C(NCC1COc2ccccc2O1)c1cc(S(=O)(=O)N2CCOCC2)ccc1F (stereo unspecified),-5.1,2,1.9,-57,-1,2.7%
S=C1NC2(CCCCC2)Nc2ccccc21,-6.9,0,3.7,-13,-14,0.5%
COC(=O)/C(=C\Nc1cccc(Cl)c1C)c1ncc(C(F)(F)F)cc1Cl,-1.0,1,0.3,-15,3,18%
CC1CCCCC1NC(=O)CCCn1c(=S)[nH]c2ccccc2c1=O (stereo unspecified),-3.3,-2,-0.4,-6,12,8.6%
CN1/C(=C\P(=O)(N(C)C)N(C)C)C(C)(C)c2ccccc21,1.7,7,6.5,14,0,-1.5%[38.3 µM]
O=C(COc1ccccc1)N1CCN(c2ccccc2)CC1,-2.0,36,-0.7,-10,7,1.0%
COC(=O)c1cccc(NC(=O)CN2CCc3ccccc3C2)c1,-1.1,5,0.6,0,0,0.1%
Cc1cccc(C(=O)Nc2scc(CC(C)C)c2C(=O)O)c1,-2.7,7,0.6,-5,-21,14%
CC(=O)c1ccc(S(=O)(=O)N2CCN(c3nc4c(C)c(C)ccc4cc3C#N)CC2)cc1,-1.2,10,-0.3,1,8,-2.4%[38.3 µM]
Cc1ccc(Cl)cc1-n1ncc2c(N3CCN(Cc4ccccc4)CC3)ncnc21,/,11,1.3,/,/,-0.4%
CCOC(=O)c1sc(=NC(=O)c2ccco2)n(C)c1C,-0.2,-9,1.4,4,5,0.9%
CC(C)C[C@@H](CN)NC(=O)c1nc[nH]c1C(=O)N[C@@H](Cc1c[nH]c2ccccc12)C(=O)CNC[C@H](C)NC(=O)c1nc[nH]c1C(=O)N[C@@H](C)C(=O)O,-4.4,32,-0.7,-13,-22,-0.2%
CCOc1ccc(Nc2c(S(=O)(=O)c3ccc(C)cc3)cnc3ccc(OC)cc23)cc1,/,-22,?,/,/,1.5%
O=CN1CCN(C(=O)c2cccc([N+](=O)[O-])c2)CC1,7.0,-6,-0.2,1,4,0.5%
Cc1ccc(CSCC(=O)NCCc2ccccc2)cc1,-8.1,15,0.3,-1,0,0.1%
O=C(Nc1ccc2c(c1)OCO2)c1cc(C2CCCN(C(=O)CCc3ccccc3)C2)on1 (stereo unspecified),-3.3,21,0.0,-6,-22,1.2%
O=C(NC1CCCCC1)C(c1ccc(F)cc1)N(Cc1ccco1)C(=O)c1ccccn1 (stereo unspecified),3.4,-2,-0.2,-6,-7,-0.6%
CCc1ccc(S(=O)(=O)NCc2cccn2Cc2cccc(C)c2)cc1,/,-18,2.0,/,/,27%
Cc1ccc(N2CC(C(=O)Nc3ccc(S(=O)(=O)Nc4nccs4)cc3)CC2=O)cc1C (stereo unspecified),1.2,-23,1.6,0,-5,1.5%
CN(CC(=O)Nc1ccc(N2CCOCC2)cc1)C(=O)CSc1ccc(Br)cc1,2.4,5,0.7,-5,1,4.4%
CCCN(C)C1CN(Cc2cn(Cc3cccc(C(F)(F)F)c3)nn2)S(=O)(=O)C1 (stereo unspecified),/,/,-0.6,/,19,-0.6%
CSC1=NCCN1C(=O)c1ccco1,0.9,-5,-0.1,-4,3,1.9%
# (cont.)
SMILES,D2 ag,TRPML1 blocker,TRPML1 ag,D2 PAM,Six1-Eya2 inh,PINK1 expr mod
O=C(O)COc1ccccc1/C=N/NC(=O)CSc1nc2ccccc2s1,-1.6,-1,1.1,2,-3,-1.3%
Nc1c(C(=O)NCC2CCCO2)c2nc3ccccc3nc2n1-c1ccccc1 (stereo unspecified),-1.8,-3,-0.1,0,14,-1.8%
CCOc1ccc2oc(C(=O)OCC(=O)NCc3ccc(OC)cc3)c(C)c2c1,1.5,13,0.4,2,3,10%
O=C(Nc1ccc(F)c(F)c1)c1ccc(=O)n(Cc2ccc(F)cc2)c1,/,-4,1.2,/,/,-4.4%
O=C(NCCCN1CCCC1=O)c1ccccc1NS(=O)(=O)c1ccc(Br)cc1,2.9,7,0.1,-7,4,-1.8%
Cc1ccc(CCNS(=O)(=O)c2ccc3c(c2)C(C(C)C)C(=O)N3)cc1 (stereo unspecified),/,7,1.9,/,/,-4.8%
Cc1ccc(C)c(OCCCCN2CCCCC2)c1,-4.0,8,0.0,-3,9,0.3%
Fc1ccc(Nc2nc3ccccc3c3nncn23)c(Cl)c1,/,7,0.0,/,/,-0.3%
N#Cc1ccc(C23CC4(C2)[C@H](CN(Cc2ccc(-c5ccccc5)cc2)[C@@H]4c2ccccc2)C3c2ccccc2)cc1 (stereo partly specified),0.1,16,2.5,-2,-3,2.5%
O=C(NCc1cccnc1)c1c(F)c(F)c(F)c(F)c1F,0.0,3,-0.2,0,3,-0.6%
O=C(NC(=O)N1CCCc2ccccc21)c1ccccc1,-3.0,0,-0.3,6,-3,0.3%
CCc1ccc(N(CC(=O)Nc2nc3ccc(C)cc3s2)S(=O)(=O)c2c(C)noc2C)cc1,-3.9,9,0.7,-5,-8,?
COc1ccccc1NS(=O)(=O)c1cccc(C(=O)N/N=C/c2cn(-c3ccccc3)nc2-c2ccccc2)c1,-5.0,1,-0.2,-13,-4,3.3%
CC(=O)c1ccc(NC(=O)CN2CCC(C(=O)c3ccc4c(c3)OCCO4)CC2)cc1,5.5,15,0.7,-4,-10,1.0%
CCc1ccccc1NC(=O)N(C)CCc1c(C)nn(C)c1C,/,2,-0.2,/,/,0.0%
C/C(=N\NC(=S)NCCc1ccccc1)c1cccc(Br)c1,-8.5,1,1.6,-2,?,3.7%
Cc1cc(C)nc(NC(=NCCc2c[nH]c3ccccc23)NC(=O)Nc2ccc(Cl)cc2)n1,-0.1,69,-0.2,-15,-11,8.1%
CCN1C(=O)[C@@H]2[C@@H](c3ccc(-c4ccc5c(c4)OCO5)c(OC)c3)N3CCCC[C@@]3(C(=O)OC)[C@@H]2C1=O,-7.1,49,0.8,-3,-10,0.3%
CC(Nc1ccc(F)cc1F)C(=O)NC(=O)NC1CCCCC1 (stereo unspecified),6.6,1,0.8,-7,0,8.4%
O=c1c(-c2ccccc2)n[nH]c2ccccc12,-0.1,9,0.7,9,-2,-1.6%
COc1cc(NC(=O)CN2C(=O)C(c3ccc(Cl)cc3)=NC23CCCCC3)cc(OC)c1,/,-3,3.5,/,/,0.9%
Cc1ccc(S(=O)(=O)n2ccc3c(OCCOCCSCC(NC(=O)OC(C)(C)C)C(=O)O)cccc32)cc1 (stereo unspecified),1.6,6,-0.1,-5,1,1.1%
CC(=O)Nc1cc(C(=O)N(C)Cc2ccco2)ccc1Sc1ccc(Cl)cc1,-7.1,2,-0.4,6,0,1.3%
COc1ccc(CCNC(=O)c2sc(=S)n(C)c2N)cc1,-4.1,23,1.8,-2,-3,4.4%
COc1ccccc1C(c1nnnn1CCc1ccccc1)N1CCCCCC1 (stereo unspecified),-3.7,7,-0.8,0,-2,7.0%
# Following part:
SMILES,D2 ag,TRPML1 blocker,TRPML1 ag,D2 PAM,Six1-Eya2 inh,PINK1 expr mod
Brc1ccc(-c2nnc(-c3ccccc3)o2)o1,-3.6,0,-0.1,-7,-2,7.2%
Cc1nnsc1C(=O)Nc1cccc(Cl)c1,0.8,8,-0.9,1,5,-0.6%
CCOC(=O)N/N=C/c1cccc(Cl)c1Cl,2.4,1,2.7,-6,0,2.4%
CCN(CC)S(=O)(=O)c1ccc2c(c1)c(=O)c(C(=O)NCCc1ccc(OC)c(OC)c1)cn2C,2.7,-8&44,0.5&-0.8,1,2,-1.9%&3.4%
COc1ccc(OCCOC(=O)CCS(=O)(=O)c2ccc(C)cc2)cc1,-2.8,-1,0.8,0,-6,0.2%
O=C(CN1CCc2ccccc2C1)Nc1ccc(Br)cc1,-0.8,-3,0.2,-40,0,/
COc1ccc(C(=O)N/N=C/c2cccnc2)cc1,1.2,5,1.7,-6,5,-2.6%
Cc1c(C(=O)N2CCCCC2)c(S(=O)(=O)NCc2ccccc2Cl)c(C)n1C,-6.5,13,-0.4,-5,-1,-0.4%
CCOc1ccc(NC(=O)CCC(=O)N/N=C/c2ccc([N+](=O)[O-])s2)cc1,6.7,-14,1.0,16,14,?
Cc1ccc(O)c(N=Cc2sc3ccccc3c2Cl)c1,8.4,-8,0.2,10,-11,?
CCCCN(C(=O)c1ccc2c(c1)OCO2)C1CCS(=O)(=O)C1 (stereo unspecified),-3.3,17,0.6,0,6,1.2%
CC(C)SC1=NC(C)(C)C=C(/C=C/c2ccc(Cl)cc2Cl)N1,-6.2,8,0.0,-24,-4,-2.1%
COCCCn1c(SCC(N)=O)nnc1-c1ccccc1,-0.5,-18,-0.1,-3,0,16%[38.3 µM]
O=C(NCCSc1ccccn1)c1ccc(Cl)cc1,-4.7,-8,-1.1,-9,11,5.5%
CN(C(=O)COC(=O)/C=C/c1ccc(Cl)c(Cl)c1)c1c(N)n(Cc2ccccc2)c(=O)[nH]c1=O,0.4,11,0.4,-6,-4,-1.9%
Cc1ccc(-n2ncc(C(=O)N3CCc4ccccc4C3)c2C2CCN(C(=O)OC(C)(C)C)CC2)cc1C,/,37,0.5,/,/,-0.2%
CCCS(=O)(=O)N1CCCC(C(=O)Oc2ccccc2Cl)C1 (stereo unspecified),1.8,55,0.9,-1,5,-0.1%
OCCN1CCN(c2nc(-c3ccccc3)nc3c2oc2ccccc23)CC1,-3.5,-10,-0.3,-28,-17,2.3%

# As entered above:
# Value for `CCCN(C)C1CN(Cc2cn(Cc3cccc(C(F)(F)F)c3)nn2)S(=O)(=O)C1` (stereo unspecified) in PINK1 expr mod: -0.6%
# Value for `CCOc1ccc(NC(=O)CCC(=O)N/N=C/c2ccc([N+](=O)[O-])s2)cc1` in TRPML1 blocker: -14
# Value for `COC(=O)/C(=C\Nc1cccc(Cl)c1C)c1ncc(C(F)(F)F)cc1Cl` in TRPML1 blocker: 1
# Value for `CC1CCCCC1NC(=O)CCCn1c(=S)[nH]c2ccccc2c1=O` (stereo unspecified) in PINK1 expr mod: 8.6%
# Value for `CCOc1ccc2oc(C(=O)OCC(=O)NCc3ccc(OC)cc3)c(C)c2c1` in D2 PAM: 2

# An excerpt taken from the entries so far:
SMILES,D2 ag,TRPML1 blocker,TRPML1 ag,D2 PAM,Six1-Eya2 inh,PINK1 expr mod
CN(C(=O)COC(=O)/C=C/c1ccc(Cl)c(Cl)c1)c1c(N)n(Cc2ccccc2)c(=O)[nH]c1=O,0.4,11,0.4,-6,-4,-1.9%
Cc1ccc(-n2ncc(C(=O)N3CCc4ccccc4C3)c2C2CCN(C(=O)OC(C)(C)C)CC2)cc1C,/,37,0.5,/,/,-0.2%
CCCS(=O)(=O)N1CCCC(C(=O)Oc2ccccc2Cl)C1 (stereo unspecified),1.8,55,0.9,-1,5,-0.1%
OCCN1CCN(c2nc(-c3ccccc3)nc3c2oc2ccccc23)CC1,-3.5,-10,-0.3,-28,-17,2.3%
